gsp agonist: gsp mutant agonism; gsp mutant cells, cAMP HTRF, 30 min; control for the full effect not named in the record; Potency, µM (titrated, usually from 76.9 µM), without a hit: top-dose activation (cAMP increase), actives largely listed as activators; 340,000 compounds, 0.13% hits; AID 624287; active = well fitted activation curve with a large enough effect; inconclusive = small, poorly fitted or top-dose-only effect, or another doubt; inactive = no such curve, though single readings can be large or run the other way; cell line not stated here;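 further: phosphodiesterase inhibitor Ro 20-1724 added with compounds to block cAMP breakdown; potency means the concentration at half of the fitted maximal effect; nearly all actives have a fitted effect of over 60% in size; about a fifth of the inactives were tested at one dose only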
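Cells in DMEM/10% FBS with G418 were pretreated with compounds in DMSO plus […] (300 uM stock) for 30 min at 37C. cAMP was measured by HTRF (cAMP-d2 plus anti-cAMP antibody-K) after 30 min at room temperature.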
ClpP mod: qHTS Assay for Activators of ClpP | purified B. subtilis ClpP, FRET peptide cleavage, 20 min | Potency, µM (doses to about 57.5 µM), for inactives: top-dose activity change, negative = active | 340,000 compounds, 1.9% hits | AID 651965, 2013; active = well fitted falling curve with a large enough effect; inconclusive = small, poorly fitted or top-dose-only effect; inactive = no such curve, though single readings can be large or run the other way; further: potency means the concentration at half of the fitted maximal effect; the source files actives as falling curves though it sought activators and does not explain the sign; nearly all actives have a fitted effect of over 65% in size; many hits overshoot -100%
Target sequence (P80244 whole entry, looked up): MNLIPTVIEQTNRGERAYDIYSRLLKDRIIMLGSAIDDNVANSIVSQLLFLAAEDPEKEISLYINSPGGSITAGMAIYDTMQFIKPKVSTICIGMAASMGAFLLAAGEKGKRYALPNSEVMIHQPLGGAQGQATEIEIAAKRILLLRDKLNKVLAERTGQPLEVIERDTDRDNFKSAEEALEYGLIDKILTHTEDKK
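ClpP 10 microg/mL final, pH 8 Tris/KCl buffer with BSA, glycerol, Tween-20; compound pinned in; FRET-FV substrate; RT 20 min; Ex320/Em430; ΔFRET vs ADEP 5.8 microM, DMSO, no enzyme.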
gsp antag: gsp mutant antagonism; gsp-mutant cells, cAMP HTRF, 30 min; control for the full effect not named in the record; 340,000 compounds, 0.4% hits; AID 624288; Potency, µM (series often up to 76.9 µM), for the others: at the highest dose activity change, negative = inhibition, hits mostly inhibitors; active = falling curve of any shape with a large fitted effect; inconclusive = falling curve, mostly with a smaller effect; inactive = flat or rising curve; cell line not stated here;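 further: intracellular cAMP measured with PDE inhibitor Ro 20-1724 present during compound exposure; potency means the concentration at half of the fitted maximal effect; on the % scale 0 is the no-effect control and ±100 the full control effect; nearly all actives have a fitted effect of over 65% in size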
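Cells in G418 medium, seeded 16-24 h, 37C; buffer exchange to DPBS + 1 mM CaCl2, 0.5 mM MgCl2, 0.05% BSA; cpds in DMSO + […] (300 uM stock), 30 min 37C; HTRF cAMP detection.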
TRPV1 PAM: enhances activation of the human vanilloid receptor TRPV1; potentiation, % at 8.33 µM; TRPV1-expressing cells, Fluo-8 calcium influx, capsaicin EC20 potentiation; host cell line not named in the record; control for the full effect not named in the record; AID 540277; Q8NER1; 320,000 compounds, 0.02% hits; active means potentiation above 80%; inconclusive means 30% to 80%; inactive means below 30%; further: 0% is about no effect
Target sequence (Q8NER1 whole entry, looked up): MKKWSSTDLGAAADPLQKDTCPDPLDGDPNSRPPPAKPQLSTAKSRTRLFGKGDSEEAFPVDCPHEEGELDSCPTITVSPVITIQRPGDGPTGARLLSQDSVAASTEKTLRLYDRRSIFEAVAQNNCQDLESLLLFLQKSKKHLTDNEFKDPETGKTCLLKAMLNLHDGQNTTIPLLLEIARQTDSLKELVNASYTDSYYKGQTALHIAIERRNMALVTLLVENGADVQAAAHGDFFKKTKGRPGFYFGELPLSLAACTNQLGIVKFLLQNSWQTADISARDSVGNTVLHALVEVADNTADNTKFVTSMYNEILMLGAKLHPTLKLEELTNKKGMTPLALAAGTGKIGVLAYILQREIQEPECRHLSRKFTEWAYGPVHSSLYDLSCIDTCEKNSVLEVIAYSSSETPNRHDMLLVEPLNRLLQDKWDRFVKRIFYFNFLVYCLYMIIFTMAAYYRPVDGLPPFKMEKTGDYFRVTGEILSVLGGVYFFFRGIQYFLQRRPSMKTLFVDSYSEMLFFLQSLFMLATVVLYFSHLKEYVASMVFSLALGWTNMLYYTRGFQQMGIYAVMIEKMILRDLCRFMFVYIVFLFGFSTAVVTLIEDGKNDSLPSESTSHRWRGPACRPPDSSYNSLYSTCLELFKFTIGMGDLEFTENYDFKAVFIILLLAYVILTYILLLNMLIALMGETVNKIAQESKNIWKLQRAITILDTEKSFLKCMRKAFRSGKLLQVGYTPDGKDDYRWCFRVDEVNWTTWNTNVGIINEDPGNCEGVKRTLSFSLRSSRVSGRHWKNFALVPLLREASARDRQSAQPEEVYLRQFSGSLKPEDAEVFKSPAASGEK
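Cells expressing TRPV1 were dye-loaded with Fluo-8 and read kinetically: 10 s baseline, 3 min after compound (agonist portion), then 2 min after EC20 capsaicin (allosteric enhancer portion). Calcium-bound dye fluorescence at 480/520 nm.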
Menin-MLL FL inh: displaces fluorescein MLL peptide from human menin; Fluorescence polarization, fluorescein-MLL peptide displacement from menin; FP activity change, % at 61.4 µM; 290,000 tested, under 10 active; AID 1766; inconclusive = falling polarisation curve, or a change in total fluorescence; inactive = total fluorescence flat and polarisation flat or rising; no compound was filed as active; the % refers to the polarisation; negative = inhibition;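 further: % of control where 0% means no effect; inhibitors lower the polarisation; unlabelled MLL peptide was the positive control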
TRPML1 blocker: inhibitors of human TRPML1 channel | TRPML1-inducible cells, Ca2+ dye fluorescence, FDSS; active compounds read low; inhibition of EC80 agonist-evoked calcium signal | activity change, negative = inhibition, % (test concentration not listed) | 390,000 compounds, 0.02% hits; in the data active means activity change below about -50%; inconclusive means about -30% to -50%; inactive means above about -30%;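 further: stimulus is agonist 54-4 at its EC80 concentration; on the % scale 0 is the no-effect control and ±100 the full control effect; compound concentration not given in the record; the text of the record puts the active cut at -80%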
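Tet-induced TRPML1-DL cells loaded with Ca8 no-wash calcium dye were read kinetically on FDSS. Compound addition was followed by EC80 agonist 54-4 (4 uM final); inhibition was read over 110 s.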
Sfp inh: inhibitors of Bacillus subtilis Sfp phosphopantetheinyl transferase; Q9F4F7; Biochemical Sfp PPTase activity, qHTS; Potency, µM, without a hit: max response, negative = inhibition, actives largely listed as inhibitors; 310,000 compounds, 3.5% hits; active means well fitted inhibition curve with a large enough effect; inconclusive means small, poorly fitted or top-dose-only effect, or another doubt; inactive means no such curve, though single readings can be large or run the other way;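 further: the enzyme is Sfp with the accession as filed and its product quenches rhodamine fluorescence; potency means the concentration at half of the fitted maximal effect; 0% = enzyme reaction without inhibitor and -100% = no enzyme wells; top concentration of the series not given in the record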
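Reaction rates are the 30-min fluorescence difference (ex 525, em 598 nm) in wells containing 15 nM Sfp, 5 uM rhodamine-CoA and 12.5 uM BHQ-2-YbbR at pH 7.6 with 10 mM MgCl2.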
* hit, by the source's call; ? = inconclusive; nt = not tested or not shown; & = joins results of further samples; [ ] = dose if it differs, or a comment. Outcome played no part in choosing rows. Share with any hit: about 4.9%.

SMILES	gsp agonist	ClpP mod	gsp antag	TRPV1 PAM	Menin-MLL FL inh	TRPML1 blocker	Sfp inh
COc1ccc(S(=O)(=O)NCC2CCCO2)c(Cl)c1Cl (centres undefined)	4%[15.4 µM]	-2.2%	7%	23	1.8	20	2%
CC(C)CNC(=S)NNC(=O)c1ccccc1OC(F)F	-34%[inhibitor]	9.2%	1%	3	4.4	-14	-2%
O=C(CN1C(=O)NC(Cc2c[nH]c3ccccc23)C1=O)NC1CCCCC1 (centres undefined)	-6%	-1.3%	8%	2	nt	6	nt
CCC(C(=O)OCC(=O)Nc1ccc(F)cc1)c1ccccc1 (centres undefined)	-15%	2.7%	-11%	-13	nt	14	nt
Cc1c(C)c(C)c(CN2CCCC2)c(C)c1C	-3%	nt	-6%	-14	3.5	0	-12%
CCOC(=O)c1cnc2c(C)c(C)ccc2c1NCCN1CCOCC1	-4%[15.4 µM]	0.4%	-11%	-13	0.8	8	1%
O=C(COC(=O)/C=C/c1cccc(C(F)(F)F)c1)NC(=O)NCc1ccco1	8%[15.4 µM]	-27%	-2%	nt	nt	8	nt
Cc1sc2c(c1C)c(=O)nc1n2Cc2ccccc2-1	nt	nt	nt	-2	-0.2	nt	-5%
CCOc1ccc2nc3cc(NCc4ccc(OC)cc4)ccc3c(N)c2c1	15%	-3.2%	-1%	-2	?	-8	32µM*
COc1ccc(OC)c(-c2csc(NC(=O)c3ccc(OCC4CCCO4)cc3)n2)c1 (centres undefined)	-17%	-7.7%	-21%	-11	8.8	-7	8%
O=C(/C(N=Nc1cccc(C(F)(F)F)c1)=C(/O)c1cccs1)C(F)(F)F	-7%[15.4 µM]	-2.4%	-19%	nt	-0.1	1	-6%
CN(C)c1nc2n(c(=S)n1)CCS2	30%	-1.1%	7%	-7	-0.4	5	?
CC(=O)c1cnc(SCC(=O)O)nc1C	5%[15.4 µM]	nt	10%	2	-3.6	32	10%
CCOC(=O)CSc1nnnn1-c1cccc2ccccc12	?	0.2%	1%	1	-2.4	-10	-2%
COc1ccc(C(=O)CSc2nnnn2C)c(OC)c1	6%[15.4 µM]	nt	-2%	18	-2.1	3	8%
COc1cccc(C(=O)NNC(=O)C2CCCO2)c1 (centres undefined)	-76%[15.4 µM]	nt	4%	-1	-2.6	0	15%
COC(=O)c1cc(/C=C/c2ccccc2)[nH]n1	12%	-15%	-7%	?	0.3	9	23%
O=C1CC(c2ccc(F)cc2)Cc2nc(N3CCOCC3)ncc21 (centres undefined)	30%	-3.6%	-1%	-10	0.8	4	-17%
CC(=O)Nc1ccccc1Nc1cc(C#N)c(C#N)cc1[N+](=O)[O-]	-24%	0.7%	12%	0	6.3	8	19%
O=C(CCc1nc2ccccc2[nH]c1=O)OCC(=O)c1ccc(Cl)cc1	-5%	-7.0%	1%	9	-2.0	-8	0%
O=C(Nc1ccccc1)c1ccc2c(c1)OCCCO2	0%	1.5%	2%	-3	-0.1	1	7%
Cn1c2c(c(=O)n(C)c1=O)C(c1ccccc1OC(F)F)C1=C(CCCC1=O)N2 (centres undefined)	29%	?	2%	8	-0.1	10	17%
COc1cc(NC(=O)CCN2CCN(c3ccccc3OC)CC2)cc(OC)c1	-24%	0.0%	nt	nt	nt	-8	nt
Cc1ccc2nc(-c3ccc(NC(=S)NC(=O)CC(C)C)cc3)sc2c1	-24%	19%	17%	-29	1.2	-4	16%
O=C(O)CCN1C(=O)c2ccc(NC(=O)C(c3ccccc3)c3ccccc3)cc2C1=O	-30%	3.3%	5%	7	-0.8	-2	6%
CN(C)/C=N/c1sc2c(c1C(N)=O)CCCC2	4%[15.4 µM]	0.5%	-3%	-9	2.0	25	7%
O=C(CCC(=O)N1CCOc2ccccc21)NCCN1CCOCC1	-64%	0.1%	8%	10	-2.0	-2	6%
O=C1C=C(Nc2ccccc2)CC(c2ccccc2)C1 (centres undefined)	20%[15.4 µM]	nt	7%	-32	2.2	17	5%
Cc1nc(NC(=O)c2oc3ccccc3c2C)sc1C(=O)N(C)C	4%	-3.6%	-2%	-8	-1.3	12	-5%
COC1CCN(C(=O)c2cc(COc3cc(C)ccc3C)on2)CC1	-74%[inhibitor]	-0.6%	nt	nt	nt	-8	nt
CCNC(=S)N/N=C/c1ccc(OCC(=O)Nc2ccc(OC)cc2)c(OC)c1	-50%[inhibitor]	-5.1%	-13%	5	10	14	10%
CSc1ncccc1C(=O)OCc1ccc(C#N)cc1	1%	-0.3%	5%	-9	2.8	3	15%
CC(C)(C)OC(=O)NCCc1nnc(SCC(N)=O)o1	3%	0.4%	15%	3	-0.4	-13	-4%
Cc1cccc(NC(=O)Nc2ccccn2)c1C	5%	0.0%	-1%	-12	0.5	nt	21%
Cc1noc(C)c1COC(=O)CCc1nc2ccccc2c(=O)[nH]1	26%	-1.1%	8%	7	-1.8	-2	-5%
CCN(CCO)c1nc(N2CCCCC2)c2cnn(C)c2n1	-8%	-19%	9%	-5	-0.5	-14	11%
O=C(Nn1cnnc1)c1ccc([N+](=O)[O-])cc1Cl	-18%	-1.5%	4%	nt	nt	22	nt
Cc1c(C)n(C)c2ccc(C(=O)NCCCN3CCCCC3)cc12	-19%	-9.9%&-7.6%	0%	15	1.2	-3&-3	5%
Cc1c(NC(=O)CSc2nc3ccccc3[nH]2)c(=O)n(-c2ccccc2)n1C	-1%	1.0%	-7%	29	8.4	2	13%
O=C(Nc1cccc(S(=O)(=O)N2CCOCC2)c1)c1ccc(=O)[nH]c1	7%[15.4 µM]	-13%	10%	nt	nt	-4	nt

Limited to TRPV1 PAM, for 2 of the compounds above:
SMILES	TRPV1 PAM
O=C(CN1C(=O)NC(Cc2c[nH]c3ccccc23)C1=O)NC1CCCCC1 (centres undefined)	2
O=C(CCc1nc2ccccc2[nH]c1=O)OCC(=O)c1ccc(Cl)cc1	9

Further entries
SMILES	gsp agonist	ClpP mod	gsp antag	TRPV1 PAM	Menin-MLL FL inh	TRPML1 blocker	Sfp inh
COc1ccc(NC(=O)c2cccc(Cn3cc(Br)c([N+](=O)[O-])n3)c2)c(C)c1	-19%	2.1%	-24%	-10	-5.4	-6	?
O=C(Nc1ccc2c(c1)OCCO2)c1ccc(S(=O)(=O)N2CCCCC2)cc1	-36%[inhibitor]	-3.6%	-17%	-12	-2.6	-11	3%
CCCn1nc(C(=O)Nc2cccc(S(=O)(=O)N(C)c3ccccc3)c2)c2ccccc2c1=O	15%	?	-11%	nt	nt	16	nt
CC(=O)c1cc(C(=O)Nc2ccccc2C(=O)O)oc1C	5%	-8.3%	-6%	-1	5.3	-2	7%
CCn1cc(C(=O)OCC(=O)c2cc(C)n(-c3ccccc3F)c2C)c(=O)c2ccc(C)nc21	0%[15.4 µM]	-1.5%	20%	19	3.1	7	-11%
COc1ccc(-c2cn[nH]c2-c2ccc(O)cc2O)cc1	-37%[inhibitor]	-17%	-10%	5	8.6	12	6%
Cc1ccc(N2C(=O)NC(NC(=O)c3ccc(Cl)cc3)(C(F)(F)F)C2=O)cc1 (centres undefined)	0%[15.4 µM]	-1.4%	-5%	0	nt	-7	24%
COc1ccc(N(C(=O)c2snc(C(N)=O)c2N)C(C(=O)NCC2CCCO2)c2ccc3ncccc3c2)cc1OC (centres undefined)	-43%[15.4 µM]	nt	-7%	6	4.5	4	10%
Cc1ccsc1/C=C/c1n[nH]c(=O)c(C#N)c1C	0%[15.4 µM]	nt	-1%	19	-2.0	2	14%
COCC(O)CSc1nc(C)[nH]c1[N+](=O)[O-] (centres undefined)	2%	0.1%	8%	-8	3.0	10	-24%
C=CCn1c(CCC(O)COCCCCC)n[nH]c1=S (centres undefined)	8%[15.4 µM]	-2.1%	-6%	-24	-0.1	-11	?
O=C(NCCN1CCOCC1)c1nn2c(c1Cl)NC(c1ccccc1)CC2C(F)(F)F (centres undefined)	-4%	-0.1%	-7%	nt	-1.0	7	8%
CCN(CC)C(=O)CSc1nc2ccccc2o1	-16%	0.0%	3%	-10	1.9	-17	-1%
CC(NC(=O)C1CCCN1S(=O)(=O)c1cccc2cccnc12)c1ccccc1 (centres undefined)	13%	0.7%	6%	1	3.0	8	9%
COC(=O)C1=C[C@@H](C(=O)OC)[C@@H]2C3=C(C(=O)[C@]2(C)NC(=O)c2ccccc2)[C@H](C)n2c(=O)n(C)c(=O)n2[C@@H]3C1	1%	-1.5%	2%	nt	nt	-22	nt
CCCCn1c(=O)cc(C)n(-c2ccccc2)c1=O	4%[15.4 µM]	-1.3%	7%	nt	nt	1	nt
COc1ccc(Cl)cc1NC(=O)CSc1nnc(COc2ccccc2)n1C	-4%	0.7%	-21%	12	2.6	11	9%
CCCCc1cc(=O)oc2cc(C)cc(OC(C)C(=O)NCC3CCC(C(=O)O)CC3)c12 (centres undefined)	nt	4.8%	-26%	11	-8.9	nt	28%
O=C(COC(=O)[C@H](Cc1ccccc1)N1C(=O)c2ccccc2C1=O)Nc1ccc2c(c1)OCO2	-3%	?	-9%	5	2.4	-1	18%
COc1ccccc1NC(=O)C1=C(C)Nc2nnnn2C1c1cccc(C)c1 (centres undefined)	26%	-0.7%	-7%	nt	2.0	3	-12%
CCCCNC(=O)/C(C#N)=C/c1ccc2c(c1)OCCO2	3%	25µM*	2%	-24	1.2	-12	7%

Three compounds from above, arranged by count of non-hydrogen atoms, ascending:
SMILES	gsp agonist	ClpP mod	gsp antag	TRPV1 PAM	Menin-MLL FL inh	TRPML1 blocker	Sfp inh
COc1ccccc1NC(=O)C1=C(C)Nc2nnnn2C1c1cccc(C)c1 (centres undefined)	26%	-0.7%	-7%	nt	2.0	3	-12%
CCCCc1cc(=O)oc2cc(C)cc(OC(C)C(=O)NCC3CCC(C(=O)O)CC3)c12 (centres undefined)	nt	4.8%	-26%	11	-8.9	nt	28%
COc1ccc(N(C(=O)c2snc(C(N)=O)c2N)C(C(=O)NCC2CCCO2)c2ccc3ncccc3c2)cc1OC (centres undefined)	-43%[15.4 µM]	nt	-7%	6	4.5	4	10%

Screening results deposited in PubChem by National Center for Advancing Translational Sciences (NCATS).
